# Bioassay records: PubChem BioAssay, Johns Hopkins Ion Channel Center
# KCNQ2 enhance: potentiators of rat KCNQ2 potassium channel. O88943. CHO-K1 KCNQ2, FluxOR thallium flux fluorescence; active compounds read high. AID 2239. B-score at 10 µM. actives 0.54% (n = 310,000);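 active = fluorescence ratio B-score at least 3 SD of library B-scores, with initial fluorescence B-score within 3 SD, cut at about 5.3 in these data; same plate scores as AID 2156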;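 note: B-score of peak minus minimum over baseline fluorescence ratio after K+ and Tl+ stimulus; positive B-score means potentiation of KCNQ2 with more thallium influx and brighter signal; only the inactives scoring about 0 or higher are listed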
# Target sequence (O88943 whole entry, looked up): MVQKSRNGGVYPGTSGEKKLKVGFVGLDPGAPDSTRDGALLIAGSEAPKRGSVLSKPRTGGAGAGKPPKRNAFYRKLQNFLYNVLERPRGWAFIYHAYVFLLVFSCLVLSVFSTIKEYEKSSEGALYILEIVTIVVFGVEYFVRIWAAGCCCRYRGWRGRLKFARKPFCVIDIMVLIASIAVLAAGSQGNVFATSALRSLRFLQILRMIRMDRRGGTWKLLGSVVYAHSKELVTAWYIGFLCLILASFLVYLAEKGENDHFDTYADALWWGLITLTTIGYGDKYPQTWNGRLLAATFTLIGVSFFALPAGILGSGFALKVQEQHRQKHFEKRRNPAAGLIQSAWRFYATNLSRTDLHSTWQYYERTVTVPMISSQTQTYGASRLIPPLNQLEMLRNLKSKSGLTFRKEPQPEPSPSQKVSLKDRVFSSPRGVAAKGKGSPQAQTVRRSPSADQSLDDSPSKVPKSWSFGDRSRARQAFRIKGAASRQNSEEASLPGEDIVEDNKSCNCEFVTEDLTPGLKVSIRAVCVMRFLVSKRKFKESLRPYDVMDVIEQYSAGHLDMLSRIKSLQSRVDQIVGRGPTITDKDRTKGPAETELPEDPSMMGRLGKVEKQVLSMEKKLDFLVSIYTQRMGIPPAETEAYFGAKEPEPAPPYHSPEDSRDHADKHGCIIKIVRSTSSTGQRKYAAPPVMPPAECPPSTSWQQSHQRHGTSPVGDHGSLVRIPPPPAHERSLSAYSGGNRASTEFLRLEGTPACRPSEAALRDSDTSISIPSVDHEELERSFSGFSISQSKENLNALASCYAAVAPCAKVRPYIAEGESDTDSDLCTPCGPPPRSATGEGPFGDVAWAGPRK
# KCNQ2 enhance baseline: also measured in KCNQ2 enhance; calls as there; B-score; compound at 10 µM; measured here: initial fluorescence intensity artifact check;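 brightness before thallium and not channel activity; 0 = typical well and far values either way flag optical interference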
# * = called active by the depositor. A portion of the library; the hit share may differ from the screen's.
canonical_smiles: CCOC(=O)c1cc(NC(=O)c2ccc(Cl)cc2)c(=O)oc1-c1ccccc1
  KCNQ2 enhance: 0.67 | KCNQ2 enhance baseline: -1.1
canonical_smiles: CCn1cc(C(=O)N2CCc3ccccc32)c(=O)c2cc(S(=O)(=O)N3CCCCCC3)ccc21
  KCNQ2 enhance: 0.11 | KCNQ2 enhance baseline: -0.91
canonical_smiles: CCN(CC)c1ccc(C(=O)OCC(=O)N2CCN(c3ccccc3)CC2)cc1
  KCNQ2 enhance: 1.5 | KCNQ2 enhance baseline: -0.7
canonical_smiles: C/C(=N/NC(=O)Cc1cccs1)c1ccco1
  KCNQ2 enhance: 0.28 | KCNQ2 enhance baseline: 1.5
canonical_smiles: COc1ccc(NC(=O)[C@H](NC(=O)[C@@H]2Cc3ccccc3CN2)c2ccccc2)cc1
  KCNQ2 enhance: 1.4 | KCNQ2 enhance baseline: -1.1
canonical_smiles: COc1ccc(S(=O)(=O)Nc2ccc3oc(C)c(C(C)=O)c3c2)cc1
  KCNQ2 enhance: 0.05 | KCNQ2 enhance baseline: 0.28
canonical_smiles: C[C@]12CCC(=O)C[C@@H]1CC[C@@H]1[C@@H]2CC[C@]2(C)C=CC[C@@H]12
  KCNQ2 enhance: 0.16 | KCNQ2 enhance baseline: 0.91
canonical_smiles: CCCCCCCC(=O)N/N=C/c1ccco1
  KCNQ2 enhance: 11* | KCNQ2 enhance baseline: 0.99*
canonical_smiles: O=C(CN1C(=O)S/C(=C\c2ccc(Cl)cc2)C1=O)NNC(=O)c1ccccc1O
  KCNQ2 enhance: 0.3 | KCNQ2 enhance baseline: 0.04
canonical_smiles: CN(C)CCN(C(=O)CN1C(=O)c2ccccc2C1=O)c1nc2cc3c(cc2s1)OCCO3
  KCNQ2 enhance: 1.8 | KCNQ2 enhance baseline: 0.23
canonical_smiles: COC(=O)c1c(C)oc2ccc(N(C(=O)c3ccncc3)S(=O)(=O)c3ccc4ccccc4c3)cc12
  KCNQ2 enhance: 0.94 | KCNQ2 enhance baseline: -1.7
canonical_smiles: CC1(C)CC(NC(=O)C(c2ccccc2)c2ccccc2)CC(C)(C)N1
  KCNQ2 enhance: 0.74 | KCNQ2 enhance baseline: -1.8
canonical_smiles: O=C(Nc1ccc2c(c1)OCO2)N1CCN(c2ncc(C(F)(F)F)cc2Cl)CC1
  KCNQ2 enhance: 1 | KCNQ2 enhance baseline: -1.6
canonical_smiles: COc1ccc(C(=O)NCCN2CCCC2)cc1[N+](=O)[O-]
  KCNQ2 enhance: 0.76 | KCNQ2 enhance baseline: -1
canonical_smiles: O=C(CN(C(=O)CCC(=O)Nc1nccs1)c1ccc2c(c1)OCCO2)NCc1ccco1
  KCNQ2 enhance: 0.12 | KCNQ2 enhance baseline: 0.07

# One compound at a time, as listed above. Order of screens: KCNQ2 enhance | KCNQ2 enhance baseline
# CCn1cc(C(=O)N2CCc3ccccc32)c(=O)c2cc(S(=O)(=O)N3CCCCCC3)ccc21 across the screens: 0.11 | -0.91
# C[C@]12CCC(=O)C[C@@H]1CC[C@@H]1[C@@H]2CC[C@]2(C)C=CC[C@@H]12 across the screens: 0.16 | 0.91
# O=C(Nc1ccc2c(c1)OCO2)N1CCN(c2ncc(C(F)(F)F)cc2Cl)CC1 across the screens: 1 | -1.6
# C/C(=N/NC(=O)Cc1cccs1)c1ccco1 across the screens: 0.28 | 1.5
# COc1ccc(NC(=O)[C@H](NC(=O)[C@@H]2Cc3ccccc3CN2)c2ccccc2)cc1 across the screens: 1.4 | -1.1

# (continued)
canonical_smiles: COc1cc(-c2nc3c[n+](CC(=O)c4ccccc4)ccc3n2C)cc(OC)c1OC
  KCNQ2 enhance: 0.9 | KCNQ2 enhance baseline: -0.33
canonical_smiles: O=C(CSc1cccc(C(F)(F)F)c1)NCc1ccccc1
  KCNQ2 enhance: 16* | KCNQ2 enhance baseline: -0.1*
canonical_smiles: CN(C)c1cccc(C(=O)OCC(=O)NCC2CCCO2)c1 (centres undefined)
  KCNQ2 enhance: 1.1 | KCNQ2 enhance baseline: 0.12
canonical_smiles: O=C1CN(CC(=O)NC2CCCc3ccccc32)CCN1 (centres undefined)
  KCNQ2 enhance: 0.51 | KCNQ2 enhance baseline: -0.14
canonical_smiles: CCOC(=O)C1(CCCc2ccccc2)CCN(C(=O)Cn2nc(C)nc2C)CC1
  KCNQ2 enhance: 1.9 | KCNQ2 enhance baseline: -0.59
canonical_smiles: Cc1ccc(CN2CCN(c3cccc4[nH]ccc34)CC2)cc1
  KCNQ2 enhance: 0.93 | KCNQ2 enhance baseline: 0.75
canonical_smiles: CCOC(=O)C1(CCOc2ccccc2)CCN(Cc2cccn2-c2ncccn2)CC1
  KCNQ2 enhance: 2.1 | KCNQ2 enhance baseline: -1.1
canonical_smiles: Cn1nc([N+](=O)[O-])nc1S(C)(=O)=O
  KCNQ2 enhance: 0.08 | KCNQ2 enhance baseline: 0.51
canonical_smiles: Cc1ccc(CCNC(=O)c2nnn(-c3cc(C)cc(C)c3)c2N)cc1
  KCNQ2 enhance: 0.2 | KCNQ2 enhance baseline: -1.1
canonical_smiles: COc1ccc(S(=O)(=O)Nc2nnc(C)s2)cc1
  KCNQ2 enhance: 2.2 | KCNQ2 enhance baseline: -0.04
canonical_smiles: CCCCn1c(N)c(N(CC(C)C)C(=O)c2cccc(S(=O)(=O)N3CCCCC3)c2)c(=O)[nH]c1=O
  KCNQ2 enhance: 1.3 | KCNQ2 enhance baseline: -3.3
canonical_smiles: COc1ccc(CCNC(=O)CCCc2ccccc2)cc1OC
  KCNQ2 enhance: 0.34 | KCNQ2 enhance baseline: -0.09
canonical_smiles: O=c1oc2ccccc2c(N2CCC(c3ccccc3)CC2)c1[N+](=O)[O-]
  KCNQ2 enhance: 2.6 | KCNQ2 enhance baseline: 0.4
canonical_smiles: c1ccc(-c2ccccc2OCCOCCN2CCCCC2)cc1
  KCNQ2 enhance: 1.4 | KCNQ2 enhance baseline: -0.41
canonical_smiles: CCC(CC)C(=O)Nc1nnc(SCC(=O)NC(C)(C)C)s1
  KCNQ2 enhance: 1.3 | KCNQ2 enhance baseline: 0.35

canonical_smiles: CN(C)S(=O)(=O)c1cccc(-c2csc(N/N=C/c3ccco3)n2)c1
  KCNQ2 enhance: 0.5 | KCNQ2 enhance baseline: 0.6
canonical_smiles: C=CCc1cccc(/C=N/NC(=O)CCC(=O)Nc2ccc(F)cc2)c1O
  KCNQ2 enhance: 2.2 | KCNQ2 enhance baseline: -0.55
canonical_smiles: COc1ccc(/C=C2\N=C(C(C)(C)C)OC2=O)c(OC)c1
  KCNQ2 enhance: 0.34 | KCNQ2 enhance baseline: 1.1
canonical_smiles: O=C(CN1CCc2ccccc21)NN1CC(=O)N(c2ccccc2)CC1=O
  KCNQ2 enhance: 0.23 | KCNQ2 enhance baseline: -2.6
canonical_smiles: Cc1ccc(-c2noc(CSc3ccccc3)n2)cc1
  KCNQ2 enhance: 0.04 | KCNQ2 enhance baseline: 0.3
canonical_smiles: COc1ccc2[nH]cc(CCNC(=S)NC3CCCC3)c2c1
  KCNQ2 enhance: 0.25 | KCNQ2 enhance baseline: 0
canonical_smiles: N#Cc1c(-c2ccc(C(F)(F)F)cc2)cc(-c2ccccc2)[nH]c1=S
  KCNQ2 enhance: 5.4* | KCNQ2 enhance baseline: -1.7*
canonical_smiles: Cc1cccc(-n2ncc3c2CCCC3NC(=O)CCCN2CCCCC2=O)c1C (centres undefined)
  KCNQ2 enhance: 1 | KCNQ2 enhance baseline: -0.96
canonical_smiles: O=C(Nc1ccncc1)C1CCN(S(=O)(=O)c2c(Cl)cccc2Cl)CC1
  KCNQ2 enhance: 1.5 | KCNQ2 enhance baseline: 0.08
canonical_smiles: CN(CCOC(=O)c1cccc(Br)c1)C(C)(C)C
  KCNQ2 enhance: 0.48 | KCNQ2 enhance baseline: 0
canonical_smiles: CCOC(=O)c1[nH]c2ccccc2c1N=CN(CC)CC
  KCNQ2 enhance: 0.07 | KCNQ2 enhance baseline: -0.01
canonical_smiles: COc1ncnc2c1oc1nc(C)c3c(c12)CC(C)(C)OC3
  KCNQ2 enhance: 2.8 | KCNQ2 enhance baseline: 0.65
canonical_smiles: O=C(NC(=S)NCCN1CCOCC1)c1ccc(Cl)cc1
  KCNQ2 enhance: 1.6 | KCNQ2 enhance baseline: 1
canonical_smiles: Cc1cc(C(=O)N2CCCC2C(=O)O)c(C)o1 (centres undefined)
  KCNQ2 enhance: 0.95 | KCNQ2 enhance baseline: -0.61
canonical_smiles: O=C(Nc1nnc(SCc2ccc(Cl)cc2)s1)c1ccco1
  KCNQ2 enhance: 0.82 | KCNQ2 enhance baseline: -0.72

# Reprinted at random: 2 records from the list, in no set order.
canonical_smiles: Cc1cccc(-n2ncc3c2CCCC3NC(=O)CCCN2CCCCC2=O)c1C (centres undefined)
  KCNQ2 enhance: 1 | KCNQ2 enhance baseline: -0.96
canonical_smiles: O=C(NC(=S)NCCN1CCOCC1)c1ccc(Cl)cc1
  KCNQ2 enhance: 1.6 | KCNQ2 enhance baseline: 1

# 4 compounds already listed, ordered by the value under KCNQ2 enhance, largest number first:
canonical_smiles: Cc1cc(C(=O)N2CCCC2C(=O)O)c(C)o1 (centres undefined)
  KCNQ2 enhance: 0.95 | KCNQ2 enhance baseline: -0.61
canonical_smiles: CN(C)S(=O)(=O)c1cccc(-c2csc(N/N=C/c3ccco3)n2)c1
  KCNQ2 enhance: 0.5 | KCNQ2 enhance baseline: 0.6
canonical_smiles: CCOC(=O)c1[nH]c2ccccc2c1N=CN(CC)CC
  KCNQ2 enhance: 0.07 | KCNQ2 enhance baseline: -0.01
canonical_smiles: Cc1ccc(-c2noc(CSc3ccccc3)n2)cc1
  KCNQ2 enhance: 0.04 | KCNQ2 enhance baseline: 0.3

# (next part)
canonical_smiles: Cc1nc(CN(C)C(=O)CC2C(=O)NCCN2Cc2ccc(-c3ccccc3)cc2)cs1 (centres undefined)
  KCNQ2 enhance: 0.83 | KCNQ2 enhance baseline: 0.73
canonical_smiles: O=[N+]([O-])c1ccc(Cl)c(/C=N/Nc2nc(N3CCOCC3)nc(N3CCOCC3)n2)c1
  KCNQ2 enhance: 0.05 | KCNQ2 enhance baseline: -0.89
canonical_smiles: CC(NC(=O)CN(C)Cc1cccc(F)c1)c1ccccc1 (centres undefined)
  KCNQ2 enhance: 0.06 | KCNQ2 enhance baseline: -0.3
canonical_smiles: NCCCC[C@@H]1NC(=O)[C@H](CCC(=O)O)NC(=O)c2cc([N+](=O)[O-])cc(I)c2NCC[C@@H](C(N)=O)NC1=O
  KCNQ2 enhance: 2 | KCNQ2 enhance baseline: -0.64
canonical_smiles: CC1(C)Cc2cccc(OCC(=O)OCC(=O)NCc3ccccc3)c2O1
  KCNQ2 enhance: 0.23 | KCNQ2 enhance baseline: 1.4
canonical_smiles: Cc1ccc2cccc(S(=O)(=O)n3nc(C)cc3C)c2n1
  KCNQ2 enhance: 1.2 | KCNQ2 enhance baseline: 0.04
canonical_smiles: COc1cc(NC(=O)COC(=O)/C=C/c2ccccc2Cl)cc(OC)c1
  KCNQ2 enhance: 1.1 | KCNQ2 enhance baseline: 0.52
canonical_smiles: CC(C)NC(=O)CC(=O)NN=C1CCCCC1
  KCNQ2 enhance: 0.05 | KCNQ2 enhance baseline: 1.7
canonical_smiles: O=C(Nc1ccc(F)cc1F)c1ccc(COc2c(F)c(F)cc(F)c2F)o1
  KCNQ2 enhance: 0.61 | KCNQ2 enhance baseline: 0.01
canonical_smiles: COc1ccc(C(=O)OCC(=O)Nc2ccc([N+](=O)[O-])cc2OC)c(O)c1
  KCNQ2 enhance: 2.2 | KCNQ2 enhance baseline: -1.1
canonical_smiles: COC(=O)c1c(C)nc2c(c(SC)nn2-c2ccccc2)c1N
  KCNQ2 enhance: 0.01 | KCNQ2 enhance baseline: -0.91
canonical_smiles: C/C=C/C=C(/NC(=O)c1ccccc1)C(=O)Nc1ccccc1
  KCNQ2 enhance: 0.37 | KCNQ2 enhance baseline: -0.26
canonical_smiles: COc1ccc(NC(=O)C(=O)N2N=C3CCCCC3C2(O)C(F)(F)F)cc1 (centres undefined)
  KCNQ2 enhance: 0.33 | KCNQ2 enhance baseline: 2.1
canonical_smiles: CC[C@H](C)[C@H](NC(N)=O)C(=O)Nc1ccc(NC(C)=O)cc1
  KCNQ2 enhance: 1.6 | KCNQ2 enhance baseline: 1.1
canonical_smiles: C#CCOCCOCCOCCNc1nc(N2CCN(C(=O)C([C@@H](C)CC)n3cc(C(N)Cc4ccc(O)cc4)nn3)CC2)nc(N2CCN(C(=O)[C@H](CCC(=O)O)n3cc(C(N)[C@H](C)CC)nn3)CC2)n1 (some centres undefined)
  KCNQ2 enhance: 0.46 | KCNQ2 enhance baseline: -0.47

canonical_smiles: Cc1cc(C(=O)COC(=O)c2cccn2C)c(C)n1Cc1ccco1
  KCNQ2 enhance: 0.59 | KCNQ2 enhance baseline: -2.1
canonical_smiles: O=C(NC(=O)c1c(F)cccc1F)O/N=C1\CCCc2occc21
  KCNQ2 enhance: 1.3 | KCNQ2 enhance baseline: 0.11
canonical_smiles: Cc1nc2ccc(S(=O)(=O)NCC(=O)N3CCCCC3)cc2s1
  KCNQ2 enhance: 0.09 | KCNQ2 enhance baseline: -0.14
canonical_smiles: O=C(Nc1cccc(Cl)c1)Nc1cc(S(=O)(=O)N2CCCCC2)ccc1Cl
  KCNQ2 enhance: 0.06 | KCNQ2 enhance baseline: 0.67
canonical_smiles: Cn1c(=O)[nH]c(=O)c2c1nc(SCC(O)CCl)n2Cc1ccccc1 (centres undefined)
  KCNQ2 enhance: 0.88 | KCNQ2 enhance baseline: -0.3
canonical_smiles: Cc1c(NC(=O)Nc2cccs2)cccc1[N+](=O)[O-]
  KCNQ2 enhance: 2.4 | KCNQ2 enhance baseline: 1.6
canonical_smiles: Cc1nc2c(nnn2Cc2c(Cl)cccc2Cl)c(=O)[nH]1
  KCNQ2 enhance: 0.59 | KCNQ2 enhance baseline: 1.9
